# miR-21 FLuc: miR-21 reporter, rising signal. AID 2288. HeLa miR-21 FLuc reporter, luciferase, 48 h. Potency, µM (highest dose often 38.3 µM), inactives show at the top dose reporter change, positive = more light. 340,000 tested, under 10 active; active = well fitted rising curve with a large enough effect; inconclusive = small, poorly fitted or top-dose-only effect; inactive = no such curve, though single readings can be large or run the other way;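 also: % of control where 0% means no effect; miR-21 action dims this reporter so a rising signal means less miR-21 action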
#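 HeLa miR-21-FLuc reporter line, endogenous miR-21; 2000 cells/well in DMEM/10% FBS; compound titration up to ~40uM final, 48 h, 37 degree Celsius; luciferase detection reagent, 15 min lysis, CCD luminescence.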
# Rango-impB inh: inhibitors of Rango-importin beta complex formation. Q14974. Rango CFP/YFP FRET sensor + importin beta, 45 min. Potency, µM (doses to about 92.2 µM), inactives show at the top dose inhibition of complex formation. actives 0.031% (n = 340,000). AID 540263; active = rising FRET ratio curve, often small or poorly fitted; inconclusive = mostly compound fluorescence or quenching in the first reads; inactive = flat curves in all reads;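 also: potency is read from the fitted curve at half-maximal effect; 0% = DMSO wells and 100% = buffer wells lacking importin beta; nearly all actives have a fitted effect of over 15% in size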
#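 FRET biosensor (snurportin 1 IBB flanked by EYFP and cerulean), 50 nM, with compound 5 min, then 0.125 microM importin beta in PBS, 1 mM DTT, 0.02% Tween-20, 0.1% BSA. CFP/YFP ratio read after 45 min at room temperature; pre-read flags interference.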
# Rango release inh: inhibition of RanGTP-driven Rango-importin beta dissociation. O95149+P62826. Biochemical FRET Rango-importin beta, RanGTP-induced dissociation. Potency, µM (doses to about 46.1 µM), for the others: at the top dose activity change, negative = inhibition. actives 0.071% (n = 340,000); active means falling FRET ratio curve, often poorly fitted, with flat reads before Ran was added; inconclusive means other falling curves, or compound fluorescence or quenching; inactive means flat or rising ratio curve;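 also: potency is read from the fitted curve at half-maximal effect; % of control where 0% means no effect; nearly all actives have a fitted effect of over 45% in size; -100% = wells without RanGTP and RCC1; the record marks most hits as doubtful in a second field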
#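 Compounds sat 5 min at room temperature with 0.1 uM Rango biosensor plus 0.25 uM importin beta, then FRET pre-read. RanGTP-RCC1 (0.6 uM Ran, 2mM GTP, 0.2 uM RCC1) added for 45 min, and the CFP/YFP post-read measured blocked complex dissociation.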
# GLA inh pH 4.5: inhibitors of human alpha-galactosidase A at pH 4.5 | P06280 | purified enzyme, 4-MU-alpha-Gal fluorescence, pH 4.5 | activity change, negative = inhibition, % at 105 µM | 230,000 tested, under 10 active; inconclusive = small, poorly fitted or top-dose-only inhibition, or a rising curve; inactive = flat fitted curve, though single readings scatter; no compound was filed as active;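 also: 0% = full activity with enzyme and -100% = basal without enzyme; dose as in the result columns while the protocol names 77 µM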
# Target sequence (P06280 whole entry, looked up): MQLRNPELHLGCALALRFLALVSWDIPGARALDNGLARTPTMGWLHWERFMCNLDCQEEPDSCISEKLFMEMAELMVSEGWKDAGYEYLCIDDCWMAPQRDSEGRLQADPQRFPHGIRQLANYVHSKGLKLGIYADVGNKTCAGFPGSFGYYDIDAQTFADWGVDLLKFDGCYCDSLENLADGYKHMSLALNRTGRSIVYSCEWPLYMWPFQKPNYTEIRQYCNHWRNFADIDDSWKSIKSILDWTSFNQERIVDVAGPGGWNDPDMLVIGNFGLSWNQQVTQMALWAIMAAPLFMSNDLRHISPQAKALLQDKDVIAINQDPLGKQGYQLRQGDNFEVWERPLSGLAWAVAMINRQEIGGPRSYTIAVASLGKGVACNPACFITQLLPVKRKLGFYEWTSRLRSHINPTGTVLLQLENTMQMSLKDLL
# * marks the source's active call; other numbers are inactive results; ? = inconclusive; nt = no result given; & = joins results of further samples. Some of the compounds tested; count on the stated rates, not on these rows.
SMILES,miR-21 FLuc,Rango-impB inh,Rango release inh,GLA inh pH 4.5
CCc1nc(SCC(=O)Nc2ccccc2OC)c2c(C)c(C)sc2n1,-10.4%,-0.6%,2.3%,nt
O/N=C1/CCc2cccc3cccc1c23,-16.3%,-2.3%,0.1%,-1.8
CC1CCN(C(=O)COC(=O)c2cc(Cl)cc(Cl)c2N)CC1,-25.9%,-0.2%,-6.4%,20.2
Cc1ccc(OCCSCc2nnc(NC(=O)Nc3cccc(Cl)c3)s2)cc1,27.0%,1.3%,1.5%,-8.5
COc1ccc(CCNC(=O)c2ccc(NS(=O)(=O)c3ccc4[nH]c(=O)[nH]c4c3)cc2)cc1,nt,-1.6%,0.0%,nt
CCOc1ccc2nc(NC(=O)c3cnccn3)sc2c1,-41.0%,-1.6%,-12.8%,-0.6
O=C(NNC(=O)c1ccc2[nH]c(=O)c(=O)[nH]c2c1)c1cccc(Br)c1,-0.6%,-2.3%,-3.6%,nt
C/C(=N\NS(=O)(=O)c1ccc(Cl)cc1)c1ccc(O)cc1,-6.8%,1.9%,-5.1%,-5.3
O=C(NCc1cccs1)C1CC(c2ccc(F)cc2)=NO1 (stereo not given),-39.2%,-1.3%,11.4%,-0.5
Cc1ccc(CCNC(=O)CCS(=O)(=O)c2ccc3nc(C)sc3c2)cc1,-0.9%,-1.2%,6.4%,nt
CCN(CC)c1cccc(OC2=NS(=O)(=O)c3ccccc32)c1,-9.8%,0.5%,-3.6%,-49.3
COc1ccc(N2C(=O)CCC2(C(N)=O)c2ccccc2)cc1 (stereo not given),-0.8%,nt,nt,1.4
Cc1cccc(-c2nc(CS(=O)CC(=O)N3CCCCC3)c(C)o2)c1 (stereo not given),-0.4%,-1.3%,-11.4%,-4.5
O=C(Cn1cc(C(F)(F)F)cc(Cl)c1=O)NC1CCS(=O)(=O)C1 (stereo not given),nt,-4.3%,14.2%,nt
COc1ccc(-c2cc(-c3nnc(COC(=O)CC4CCCC4)o3)c3ccccc3n2)cc1OC,0.9%,?,-18.3%,-13.3
Cc1ccc(S(=O)(=O)NCC(=O)NCC2COc3ccccc3O2)cc1C (stereo not given),nt,-0.5%,31.1%,nt
CS(=O)(=O)NNC(=O)c1cc2cc3ccccc3nc2s1,-28.2%,0.3%,3.5%,-2.3
CC(=O)N1c2ccc(S(=O)(=O)N(C)CC(=O)N(C)Cc3ccccc3)cc2CC1C (stereo not given),-2.1%,-1.6%,-13.3%,nt
Cc1cc(=O)oc2cc(NC(=O)CN3C(=O)NC(C)(c4ccccc4)C3=O)ccc12 (stereo not given),nt,-3.6%,-2.3%,nt
CCN(Cc1ccccc1)C(c1ccc(C)cc1)c1nnnn1C(C)(C)CC (stereo not given),-0.6%,2.8%,-0.3%,-5.0
Cc1cc(C)c(NC(=O)c2cccc(NC(=O)c3ccco3)c2)c(C)c1,1.4%,6.8%,-14.7%,nt
CC(C)(C)c1ccc(-c2n[nH]c(=S)n2/N=C/c2ccncc2)cc1,-38.1%,-2.7%,-12.8%,3.3
CCc1ccc(NS(=O)(=O)c2c(C(=O)N3CCOCC3)c(C)n(C)c2C)cc1,2.6%,0.1%,-10.0%,nt
O=C(CSc1nnc(-c2ccc(F)cc2)o1)Nc1ccc(S(=O)(=O)N2CCCCCC2)cc1,0.3%,-0.4%,0.8%,2.1
CCOC(=O)c1nn(-c2ccccc2)cc1O,-49.0%,1.2%,0.0%,0.5
N#CC1=C(SCC(N)=O)NC(=O)CC1c1cccc2ccccc12 (stereo not given),nt,-1.1%,8.8%,nt
CN(CC(=O)Nc1ccc(Cl)c(C(F)(F)F)c1)CC(=O)NC1CCCCC1,nt,-3.5%,11.9%,nt
CCN(CC)CCOC(=O)c1cc(Cl)c(N)cc1OC,nt,2.4%,-20.3%,-10.8&0.7
CC(=O)c1c(C)[nH]c(C(=O)COC(=O)C2CC2)c1C,3.1%,0.3%,12.4%,-5.8
O=C(Nc1ccncc1)c1ccc(Cl)c(S(=O)(=O)N2CCCC2)c1,nt,9.2%,22.2%,nt
Cc1cc(OCC(=O)NCCc2c[nH]c3ccccc23)c2c(C)cc(=O)oc2c1,-3.4%,-3.1%,2.1%,nt
COc1ccc(CN2CCC(C(=O)N(C)CCc3ccc(OC)c(OC)c3)CC2)c(OC)c1,-5.5%,-0.7%,-9.1%,-0.9
CCCCCCCCCCn1cc(C(C)=O)c(=O)[nH]c1=O,2.2%,-3.2%,14.2%,14.5
CNc1c([N+](=O)[O-])cnn1-c1ccccc1Cl,-59.6%,?,-13.2%,3.4
C=CCNC(=S)Nc1ccc2nsnc2c1,-0.6%,0.9%,?,-3.2
O=C(Nc1ccccc1)C1CCN(c2nccs2)CC1,-9.7%,0.6%,-9.0%,-1.6
O=[N+]([O-])c1ccc(C2OCCO2)cc1CS(=O)(=O)c1ccccc1,-1.0%,2.4%,14.0%,0.7
Cc1ccc(SC(C)C(=O)NC(N)=O)c(C)c1 (stereo not given),-4.1%,-3.4%,-3.1%,4.3
O=C(c1cccc(Cl)c1)N1CCC(N2CCC(C(=O)N3CCOCC3)CC2)CC1,0.4%,-1.8%,-8.3%,-1.0
Cc1nc(SCC(=O)NNC(=O)c2cccs2)[nH]c(=O)c1C,-53.1%,-0.2%,-6.1%,-3.9
O=C(O)CCC(=O)Nc1ccc(C(=O)OCC(=O)c2ccc(Cl)cc2)cc1,-4.1%,0.0%,-13.7%,6.5
CC[C@@H]1[C@H]2CCCC(=O)N3CC[C@@H](C[C@@H]1OC(=O)Nc1ccccc1)[C@@H]23,0.5%,-1.9%,-12.4%,nt
Cc1cccc(NC(=O)CSc2nnc(C3CC3)n2CC2CCCO2)c1C (stereo not given),5.7%,2.3%,6.0%,nt
CN(C)c1ccc(S(=O)(=O)N2CCCCC2)cc1NC(=O)C1=NN(c2ccccc2)C(=O)CC1,3.4%,0.3%,9.4%,nt
CNC(=S)N/N=C(\C)c1ccc(Cl)c(Cl)c1,-8.2%,-2.8%,-2.9%,-4.1
COc1ccc2oc(=O)c(C(=O)N3CCN(c4ccc(F)cc4)CC3)cc2c1,-5.5%,-0.9%,-6.4%,-16.2
Cc1ccc(NC(=O)CCNCc2ccco2)cc1S(=O)(=O)N(C)C,-3.5%,2.3%,-2.9%,-0.4
Cc1nc2c(C(=O)NCc3ccc4c(c3)OCO4)c[nH]n2c(=O)c1Cc1ccccc1F,-7.0%,7.3%,2.7%,-9.0
O=C(NCc1ccccc1Cl)C1CCCN1S(=O)(=O)c1ccc(F)cc1 (stereo not given),-0.8%,-0.7%,8.2%,nt
Cc1ccc(OCC(=O)NCC(=O)Nc2ccc(F)cc2)c([N+](=O)[O-])n1,-6.4%,0.3%,-9.4%,3.0
COCCNC(=O)C(C)OC(=O)c1cc2sccc2n1C (stereo not given),-1.0%,1.8%,11.8%,3.9
NS(=O)(=O)c1ccc(NC(=O)CSc2ncccn2)cc1,-13.3%,0.6%,-2.8%,-4.0
CCC(C)(C)C1CCC2(CC1)NC(=S)N(c1ccccc1)N2 (stereo not given),-29.1%,-0.2%,-0.2%,-0.9
CC1(C)C2CCC1(CS(=O)(=O)N1CCN(c3ccc(F)cc3)CC1)C(=O)C2 (stereo not given),0.1%,2.3%,4.9%,nt
COc1ccc(CC(=O)N2CCN(c3ccccn3)CC2)cc1OC,-9.9%,-1.2%,-15.2%,-2.0
CC1=C(C(=O)N2CCOCC2)C(c2ccccc2F)C2=C(CC(C)(C)CC2=O)N1 (stereo not given),0.9%,-3.6%,-4.2%,6.5
CC(Oc1ccc2ccccc2c1)C(=O)NNC(=O)Nc1ccccc1F (stereo not given),-8.5%,-2.8%,2.6%,nt
CCc1ncc(CN2CCC(C(=O)Nc3ccc(-n4nc(C)cc4C)cc3)CC2)cn1,4.0%,-0.4%,-2.8%,nt
OCCNc1nc(Nc2cccc(O)c2)nc2ccccc12,7.4%,0.5%,-16.1%,1.5
CCc1nnc(SCC(=O)Nc2ccc(F)cc2)o1,0.1%,-0.9%,-3.4%,nt

# Next results:
SMILES,miR-21 FLuc,Rango-impB inh,Rango release inh,GLA inh pH 4.5
Cc1nc2cc(N=NC3=C(O)CCCC3=O)ccc2s1,-47.5%,-0.4%,-12.3%,-13.4
COc1ccc(C)cc1S(=O)(=O)Nc1ccc2c(c1)OCO2,-4.0%,2.3%,0.3%,3.5
NC(=O)[C@@H]1CC2(CC(c3cccc(NC(=O)[C@@H]4CCC(=O)N4)c3)=NO2)CN1C(=O)Cc1ccc([N+](=O)[O-])cc1 (stereo not given in full),2.1%,-0.3%,7.2%,1.4
O=CC(O)C1OC(=O)C(O)C1O (stereo not given),nt,-2.0%,-5.6%,nt
COc1ccc2cc(-c3[nH]ncc3CN3C[C@@H]4CCC[C@H]3C4)ccc2c1,-40.7%,0.3%,-10.2%,-2.8
CC(Sc1nc(NC(C)(C)C)nc(N(C)C)n1)C(=O)Nc1ccccc1 (stereo not given),-2.7%,-0.4%,2.5%,0.3
CCN(C(=O)COC(=O)CNC(=O)C1CCCCC1)c1ccccc1,nt,-0.1%,?,nt
Cc1nc(CS(=O)(=O)c2ccccc2)cc(N2CCOCC2)n1,-24.6%,1.3%,0.5%,-5.3
C#CC(CC)(CC)NC(=O)c1ccc(Br)s1,4.5%,-0.3%,5.2%,2.9
O=C(COC(=O)CCCOc1ccc(Cl)cc1Cl)Nc1cccc(Cl)c1,-0.1%,4.2%,0.2%,-1.8
C/C(Nc1cccc(F)c1)=C(/C#N)C(N)=O,-6.6%,1.7%,4.3%,2.1
O=C(c1ccccc1)N1CCN(C2CC3CCC2C3)CC1 (stereo not given),-4.6%,-4.7%,2.1%,2.8
COc1ccc(S(=O)(=O)NCCc2ccc(F)cc2)cc1,-4.3%,-0.7%,-1.2%,-22.8
Cc1nc(-c2nnc(SCC(=O)Nc3cc(Cl)cc(Cl)c3)n2C)cs1,1.4%,0.8%,-5.0%,0.5
O=C(NCC(c1cccs1)N1CCOCC1)c1cc(S(=O)(=O)N2CCOCC2)c(Cl)cc1Cl (stereo not given),nt,-1.4%,-11.8%,nt
CC1CC(C)CN(C(=O)C(C)N(C)CC(=O)Nc2ccc(F)cc2)C1 (stereo not given),nt,0.5%,14.5%,nt
Cc1cc(C)c(O)c(C2(O)C(=O)c3ccccc3C2=O)c1,-3.3%,6.0%,-10.1%,-1.0
O=C(c1noc2c1CCCCC2)N1CCN(C(c2ccccc2)c2ccccc2)CC1,nt,2.7%,-20.0%,nt
COc1cccc(C(=O)CSc2nccn2C)c1,-54.2%,0.7%,0.7%,nt
CC(=O)Nc1ccc(S(=O)(=O)N2CCN=C2C)cc1,-1.6%,1.9%,9.4%,-1.1
COc1cc(/C=N/NC(=O)CNc2n[nH]c(=O)[nH]c2=O)ccc1O,-5.1%,9.1%,6.2%,-3.0
CCCN(Cc1ccccc1)C(=S)Nc1cccc(C(F)(F)F)c1,3.3%,4.3%,-12.0%,-2.6
O=C(NCCc1ccccc1)C1CCN(c2ncccn2)CC1,-21.6%,1.5%,7.7%,3.7
COc1ccccc1N1CCN(C(c2ccccc2)c2nnnn2CCc2ccccc2)CC1 (stereo not given),-4.7%,1.8%,-3.6%,-11.5

# Part of the list above, set out differently.
Cc1cc(C)c(O)c(C2(O)C(=O)c3ccccc3C2=O)c1
  miR-21 FLuc = -3.3%; Rango-impB inh = 6.0%; Rango release inh = -10.1%; GLA inh pH 4.5 = -1.0
COc1cc(/C=N/NC(=O)CNc2n[nH]c(=O)[nH]c2=O)ccc1O
  miR-21 FLuc = -5.1%; Rango-impB inh = 9.1%; Rango release inh = 6.2%; GLA inh pH 4.5 = -3.0
O=C(c1noc2c1CCCCC2)N1CCN(C(c2ccccc2)c2ccccc2)CC1
  miR-21 FLuc = nt; Rango-impB inh = 2.7%; Rango release inh = -20.0%; GLA inh pH 4.5 = nt
COc1ccccc1N1CCN(C(c2ccccc2)c2nnnn2CCc2ccccc2)CC1 (stereo not given)
  miR-21 FLuc = -4.7%; Rango-impB inh = 1.8%; Rango release inh = -3.6%; GLA inh pH 4.5 = -11.5

# From PubChem BioAssay
